High-throughput results: PubChem, Sanford-Burnham Center for Chemical Genomics
PABP polyA inh – PABP poly(A) RNA binding inhibitors, primary screen, biochemical, fluorescence polarization, uHTS | inhibition, % at 35 µM | hit rate 1% among 290,000 | AID 2014, 2009;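 further: calls also rest on retests at 20 µM and on dose response follow-up; controls were probe without protein and protein plus probe with vehicle; some compounds called inactive have numbers as strong as hits; many hits fall short of the cut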
Target sequence (P11940 whole entry, looked up): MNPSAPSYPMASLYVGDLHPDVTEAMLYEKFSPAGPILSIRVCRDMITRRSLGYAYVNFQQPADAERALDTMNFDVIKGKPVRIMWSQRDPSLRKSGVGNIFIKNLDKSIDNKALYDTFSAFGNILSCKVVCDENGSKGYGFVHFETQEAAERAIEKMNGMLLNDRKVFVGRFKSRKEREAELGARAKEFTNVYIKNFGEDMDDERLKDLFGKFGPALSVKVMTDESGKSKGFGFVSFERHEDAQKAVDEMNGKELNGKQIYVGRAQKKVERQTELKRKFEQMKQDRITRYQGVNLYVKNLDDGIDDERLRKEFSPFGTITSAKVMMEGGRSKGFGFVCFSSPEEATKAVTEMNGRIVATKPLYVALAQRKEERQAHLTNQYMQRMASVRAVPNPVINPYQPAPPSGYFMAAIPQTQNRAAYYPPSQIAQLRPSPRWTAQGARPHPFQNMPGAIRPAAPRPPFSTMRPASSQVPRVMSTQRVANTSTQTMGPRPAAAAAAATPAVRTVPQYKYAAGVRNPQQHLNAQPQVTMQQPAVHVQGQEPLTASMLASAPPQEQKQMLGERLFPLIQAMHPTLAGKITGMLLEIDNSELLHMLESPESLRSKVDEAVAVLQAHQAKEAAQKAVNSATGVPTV
eIF4H inh – human eIF4H binding inhibitors, primary screen, translation initiation inhibitor project, biochemical, uHTS, fluorescence polarization. Eukaryotic translation initiation factor 4H (Homo sapiens), Q15056. eIF4H fluorescence polarization binding assay. inhibition, % at 35 µM. hit rate 0.94% among 290,000. AID 2012, 2009;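 further: calls also rest on retests at 20 µM and on dose response follow-up; 0% = protein and probe with vehicle and 100% = probe without protein; strong numbers were not always called active; many hits fall short of the cut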
eIF4H inh retest – also measured in eIF4H inh; calls as there; inhibition, %; compound at 20 µM; confirmation average;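 mean of two retest wells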
PABP polyA inh retest – recorded beside PABP polyA inh, whose call it bears; inhibition, %; compound at 20 µM; confirmation repeats;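 mean of two retest wells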
An asterisk follows results filed as active.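 How the source made its calls: active means 50% or more with normal probe brightness, or confirmed in later tests; inconclusive means above 50% with abnormal brightness, or retests that disagree; inactive means below 50% or failed in later tests; about a fifth of its hits are not listed in these tables.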 This is a subset, so the mix of outcomes need not match the whole.

SMILES	PABP polyA inh	eIF4H inh	others
CC(=O)C(Sc1nc(-c2ccc(F)cc2)nc2c1c(=O)n(C)c(=O)n2C)C(C)=O	2	2
Cn1c(SCC(=O)Nc2cc(=O)n(C)c(=O)n2C)nnc1C12CC3CC(CC(C3)C1)C2	6	-5
Cc1cc2nnc(SCCCCN3C(=O)c4ccccc4C3=O)n2c2ccccc12	11	-6
CCCN1C(=O)c2cc(C(=O)NCc3cccs3)ccc2C1O (stereo not drawn)	11	2
CSc1nc2sc3c(c2c2nnnn12)CCC3	8	-11
Cc1ccccc1OCC(=O)NCC(=O)N/N=C/C=C/c1ccccc1	-8	-9
O=C(CNc1ccc2c(c1)OCO2)N/N=C\c1cn(Cc2ccc(F)cc2)c2ccccc12	-7	71	eIF4H inh retest=-3;PABP polyA inh retest=5
C[C@@H]1NC(=O)[C@H](CCCN=C(N)N)NC(=O)c2cc([N+](=O)[O-])cc(I)c2OCC[C@@H](C(N)=O)NC1=O	-4	-7
COC(=O)c1[nH]c2cccc(OC)c2c1NC(=O)CCN1CCN(c2cccc(Cl)c2)CC1	-3	2
Cn1c(=O)c2c(nc(CN3CCN(Cc4ccccc4)CC3)n2Cc2ccccc2)n(C)c1=O	-5	-6
Fc1ccc2[nH]c3c(N4CCN(Cc5ccc6c(c5)OCO6)CC4)ncnc3c2c1	-2	-5
O=C1N=C(N2CCOCC2)S/C1=C1\C(=O)N(Cc2ccccc2)c2ccc(Br)cc21	0	-10
Cc1cc(=O)oc2c1c(C)nn2-c1ccc(C(=O)OC(C)C)cc1	-8	-18
CCCCn1c(SCc2cc(=O)n3ccsc3n2)nc2cc(C(=O)OC)ccc2c1=O	0	1
CCn1cc(C(=O)Nc2ccc(C(=O)N3CCCC3)cc2)c(=O)c2ccc(C)nc21	-6	4

Structures above containing two or more sulfur atoms (two):
SMILES	PABP polyA inh	eIF4H inh	others
CSc1nc2sc3c(c2c2nnnn12)CCC3	8	-11
CCCCn1c(SCc2cc(=O)n3ccsc3n2)nc2cc(C(=O)OC)ccc2c1=O	0	1

Back to the main list with the 6 entries that preceded the break.
SMILES	PABP polyA inh	eIF4H inh	others
Cn1c(=O)c2c(nc(CN3CCN(Cc4ccccc4)CC3)n2Cc2ccccc2)n(C)c1=O	-5	-6
Fc1ccc2[nH]c3c(N4CCN(Cc5ccc6c(c5)OCO6)CC4)ncnc3c2c1	-2	-5
O=C1N=C(N2CCOCC2)S/C1=C1\C(=O)N(Cc2ccccc2)c2ccc(Br)cc21	0	-10
Cc1cc(=O)oc2c1c(C)nn2-c1ccc(C(=O)OC(C)C)cc1	-8	-18
CCCCn1c(SCc2cc(=O)n3ccsc3n2)nc2cc(C(=O)OC)ccc2c1=O	0	1
CCn1cc(C(=O)Nc2ccc(C(=O)N3CCCC3)cc2)c(=O)c2ccc(C)nc21	-6	4
COc1cc(OC)c2c(-c3ccccc3)cc(=O)oc2c1C(CC(=O)N1CCN(c2ccccc2)CC1)c1ccc2c(c1)OCO2 (stereo not drawn)	1	55	eIF4H inh retest=23;PABP polyA inh retest=16
CC(=O)OC[C@H]1O[C@H](CCO/N=C(\C)CCN2CCCc3nc(C)c(C)cc32)C=C[C@@H]1OC(C)=O	2	109	eIF4H inh retest=34;PABP polyA inh retest=41
COc1ccc(O[C@H]2C=C[C@@H](c3ccccc3)O[C@@H]2COC(=O)CCC(C)=NO[C@@H]2O[C@H](COC(C)=O)[C@@H](OC(C)=O)[C@H](OC(C)=O)[C@H]2OC(C)=O)cc1	2	-1
CCOC(=O)CN1C(=O)N[C@@H](c2ccc(Br)cc2)C(C(C)=O)=C1C	10	-10
Cc1c(N=CC=Nc2c(C)n(C)n(-c3ccccc3)c2=O)c(=O)n(-c2ccccc2)n1C	-7	-1
Cn1c(-n2c(CCN3C(=O)c4ccccc4C3=O)nc3ccccc3c2=O)nc2ccccc21	2	6
O=C(CSc1ncnc2c1oc1ccccc12)N1CCc2ccccc2C1	-5	-12
Clc1ccc(-c2nnc3sc(-c4ccccn4)nn23)cc1	-4	-15
Cc1ccc(N2CCCn3c2nc2c3c(=O)n(CCN3CCOCC3)c(=O)n2C)cc1	-10	-4
Cc1cnc(-c2nnc(N(C)C(=O)c3ccccn3)s2)cn1	-6	-6
O=C(NC1CC1)c1ccc2c(c1)NC(=O)c1ccccc1S2	2	3
Cc1ccc2c3c(c(SCC(=O)Nc4nccs4)nc2c1)CCCC3	-2	3
CN(CCCCCNC(=O)/C=N/O)Cc1ccccc1	4	3
Nc1nc(SCC(=O)NC2CCCC2)[nH]c(=O)c1-c1ccccc1	3	1
Cc1cccc(-c2cc(C(=O)NCCCn3ccnc3)c3ccccc3n2)c1	-13	-7
O=C(O)[C@@H]1CSC2(CCSC2)N1 (stereo partly drawn)	2	-12
C#CCOCCOCCOCCNc1nc(N2CCN(C(=O)[C@H](Cc3cc4ccccc4[nH]3)n3cc([C@@H](N)Cc4ccc(O)cc4)nn3)CC2)nc(N2CCN(C(=O)[C@H](Cc3cc4ccccc4[nH]3)n3cc([C@@H](N)CC(C)C)nn3)CC2)n1	-16	3
O=C(Cn1c(CSc2ccccc2)nc2ccccc21)Nc1ccccc1	1	-9
N=C1/C(=C\c2ccc(OCc3ccccc3)cc2)C(=O)N=C2SC(N3CCCC3)=NN12	4	19
COc1cc(C2c3c(oc4ccc(Cl)cc4c3=O)C(=O)N2Cc2ccco2)cc(OC)c1OC (stereo not drawn)	-2	-22
CC1(C)CC(=O)C=C(N2CCN(C3=CC(=O)CC(C)(C)C3)CC2)C1	0	2
NC(=O)CC[C@@H]1NC(=O)[C@H](Cc2ccccc2)NC(=O)[C@H](Cc2ccc(O)cc2)NC(=O)[C@@H](N)CSSC[C@@H](C(=O)N2CCC[C@H]2C(=O)N[C@@H](CCCN=C(N)N)C(=O)NCC(N)=O)NC(=O)[C@H](CC(N)=O)NC1=O	14	6
COc1cccc2cc(C(=O)C3=C(O)C(=O)N(CCCN(C)C)C3c3ccncc3)oc12 (stereo not drawn)	0	-6
CC(C)(C)C(=O)Nc1ccnc(-c2cccnc2)n1	-4	-3
O=C1c2ccccc2C(=O)N1c1ccc(-c2nc3ccccc3o2)cc1	-6	7
COc1ccc2c(c1)nc1n2CN(CC2CCCO2)CN1Cc1ccccc1 (stereo not drawn)	0	2
COC(=O)c1c(NC(=O)c2nc3ncccn3n2)sc(C(=O)N(C)C)c1C	3	4
Cc1oc(C(=O)O)cc1COc1ccc2c3c(c(=O)oc2c1C)CCCC3	-2	-3
O=[N+]([O-])c1cccc(-c2nc(N3CCOCC3)c3ccccc3n2)c1	15	9
Cc1cc2cc(C)c3nnc(SCC(=O)N4CCc5ccccc54)n3c2cc1C	-2	-6

Part of the list above in order of length of the SMILES, rising.
SMILES	PABP polyA inh	eIF4H inh	others
Cc1cc2cc(C)c3nnc(SCC(=O)N4CCc5ccccc54)n3c2cc1C	-2	-6
C#CCOCCOCCOCCNc1nc(N2CCN(C(=O)[C@H](Cc3cc4ccccc4[nH]3)n3cc([C@@H](N)Cc4ccc(O)cc4)nn3)CC2)nc(N2CCN(C(=O)[C@H](Cc3cc4ccccc4[nH]3)n3cc([C@@H](N)CC(C)C)nn3)CC2)n1	-16	3
NC(=O)CC[C@@H]1NC(=O)[C@H](Cc2ccccc2)NC(=O)[C@H](Cc2ccc(O)cc2)NC(=O)[C@@H](N)CSSC[C@@H](C(=O)N2CCC[C@H]2C(=O)N[C@@H](CCCN=C(N)N)C(=O)NCC(N)=O)NC(=O)[C@H](CC(N)=O)NC1=O	14	6

Next results:
SMILES	PABP polyA inh	eIF4H inh	others
Cc1[nH]c2ccccc2c1C(=O)CN1CCN(C2CCCCC2)CC1	10	-3
CCN1C(=O)/C(=C/c2cnn(C)c2C)SC1=S	1	12
Cc1c(C(=O)Nc2ccccc2N2CCOCC2)sc2nc3n(c(=O)c12)CCC3	5	-3
O=C1CC(NCCC2=CCCCC2)C(=O)N1c1cccc(Cl)c1Cl (stereo not drawn)	-5	-3
CN(C)CCCN1C(=O)C(=O)/C(=C(/O)c2ccc3c(c2)OCCO3)C1c1ccco1 (stereo not drawn)	5	-6
Cc1cc(C)c2c(n1)nn1c(N3CCN(c4ccccn4)CC3)cc(C)nc21	1	-3
O=C(CSc1ccc2nnc(-c3cccnc3)n2n1)N1CCc2ccccc21	-3	-5
CCN(CC)CCCN1C(=O)C(O)=C(C(=O)c2sc(C)nc2C)C1c1ccc(C)o1 (stereo not drawn)	10	-10
CCOc1cccc(-c2nnc3sc(-c4ccc(C)cc4)nn23)c1	-2	-6
c1ccc(Cn2ncc3c2ncn2c(-c4ccncc4)nnc32)cc1	-6	44
CCCOc1ccc(C(=O)CCC(=O)OCC(=O)Nc2cc(C)on2)cc1	1	-6
COC(=O)C1=C(NC(=O)c2cccs2)CCS1	-11	-2
NS(=O)(=O)c1ccc(O)c(N2C(=O)c3cccc4c(C(=O)c5ccccc5)ccc(c34)C2=O)c1	-1	5
CC(=O)Cc1nsc(NC(=O)c2ccc(-c3ccc(Cl)c(C(F)(F)F)c3)o2)n1	-7	-4
CCOC(=O)C(C)Sc1nc(-c2ccc(OC)cc2)nc2c1c(=O)n(C)c(=O)n2C (stereo not drawn)	2	-5
Cn1c(=O)[nH]c(=O)c2c1nc(NC1CCCCC1)n2CC(=O)NC1CCCCC1	-7	-12
Cn1c(Oc2ccc(Cl)c3cccnc23)nc2c1c(=O)n(Cc1ccccc1Cl)c(=O)n2C	6	-2
Cc1cc(C)c(O)c(N)c1	4	9
O=c1[nH]c2c(cc1CNCCN1CCOCC1)c(-c1cccc(F)c1)nn2-c1ccccc1	8	1
Cc1nc2nc(-c3ccc(Cl)cc3)[nH]n2c(=O)c1C	0	-11
C/C(CCN1CCCCc2nc(C)c(C)cc21)=N\O[C@@H](C)c1cn([C@H](CO)Cc2ccccc2)nn1	-6	-1
Cc1cc(N2CCCC2)n2nc(C)c(-c3ccccc3)c2n1	7	12
CCCN1CCN(C(=O)c2cc3c(s2)-c2ccccc2S(=O)(=O)C3)CC1	3	0
COc1ccc(-c2ccc3c(n2)sc2c(=O)[nH]c(=O)[nH]c23)cc1OC	10	0
CCOC(=O)c1sc(NC(=O)CSc2nc3c(c(=O)n2-c2ccc(F)cc2)SCC3)c(C(=O)OCC)c1C	7	6
CCn1c(=O)c2cc(C(=O)N3CCN(C(=O)c4ccco4)CC3)sc2c2ccccc21	1	-1
Cc1nc(C)c(C(=O)C2=C(O)C(=O)N(CCCN(C)C)C2c2ccco2)s1 (stereo not drawn)	20	10
CC(C)C(NC(=O)C1CCCCC1)C(=O)NC1CCN(Cc2ccccc2)CC1 (stereo not drawn)	-8	-15
CCCn1c(=O)c2ccccc2n2c(SCC(=O)c3cc(C)n(CC4CCCO4)c3C)nnc12 (stereo not drawn)	-1	1
CN(C)c1ccc(/C=C2/C(=O)N(c3ccc([N+](=O)[O-])cc3)N=C2N2CCOCC2)cc1	-3	-6

Two entries picked at random from those above, as already listed:
SMILES	PABP polyA inh	eIF4H inh	others
CN(C)c1ccc(/C=C2/C(=O)N(c3ccc([N+](=O)[O-])cc3)N=C2N2CCOCC2)cc1	-3	-6
COc1ccc(-c2ccc3c(n2)sc2c(=O)[nH]c(=O)[nH]c23)cc1OC	10	0

Next part
SMILES	PABP polyA inh	eIF4H inh	others
O=C(C1CCN(S(=O)(=O)c2cccc3cccnc23)CC1)N1CC=C(c2ccccc2)CC1	11	-6
CCOc1ccc(OCC)c(NC(=O)CSc2nc3c(c(=O)n(C)c(=O)n3C)n2C)c1	-5	-6
COc1ccc(N=c2scc(-c3ccc(S(=O)(=O)N4CCOCC4)cc3)n2CCCO)cc1	0	6
CC1Cc2ccccc2N1C(=O)CSc1nc(N)cc(=O)[nH]1 (stereo not drawn)	-14	-9
Cc1cc(C)c2[nH]c(=O)c(C(c3nnnn3C3CCCC3)N3CCOCC3)cc2c1 (stereo not drawn)	10	4
CN(C)c1ccc(-c2nn3c(-c4ccc(Cl)cc4Cl)nnc3s2)cc1	-1	39
